AID504770 = E. coli YBA685 growth inhibition, screen for V. cholerae RctB inhibitors; E. coli YBA685 rctB-dependent plasmid, OD600 growth, 3 h; stronger effect = lower value; z-score (no concentration beside the values); 130,000 tested, 0.27% active; AID 504770;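 active = z-score under -2 on both plates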;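 also: wells of about 30 µL received 100 nL stock; score is relative to mean and SD of the test wells; the first replicate is given; strong numbers were not always called active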
Ba CapD inh = inhibitors of Bacillus anthracis CapD enzyme; purified CapD enzyme, fluorescence intensity read-out; stronger effect = lower value; some hits fall short of the stated cut; z-score (test concentration not listed); 140,000 tested, 0.23% active; AID 492967;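 active = z-score under -4 in either of two replicates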;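 also: stock transfer was 100 nL into about 40 µL; score is relative to mean and spread of the plate; one replicate is shown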
An asterisk follows results filed as active; i = inactive; x = no result given. Random draw from the library; overall some 0.41% were active at least once.

SMILES	AID504770	Ba CapD inh
CC(C)c1ccc(N(C)S(=O)(=O)c2ccc3[nH]cc(C(=O)NCCc4ccccc4)c(=O)c3c2)cc1	x	-0.29
COc1cc(C(F)(F)F)nc2ccc(C)c(N)c12	0.55	-0.52
CCCN1C(=O)/C(=c2\sc3n(c2=O)C(c2ccc(OC)cc2)C(C(=O)OC)=C(C)N=3)c2ccccc21 (stereo not given)	x	-0.37
CC1CC(C)(C)Nc2ccc(OC(=O)c3ccco3)cc21 (stereo not given)	0.05	3.8
COc1cccc(Cc2nnc(-c3ccc4nsnc4c3)o2)c1	-1.1	1.8
C/C(=N\OCc1cccc(C(=O)O)c1)c1ccc(Cl)c(Cl)c1	x	-0.24
O=C1C(=O)N(CCCN2CCOCC2)C(c2ccc(F)cc2)/C1=C(\O)c1ccc(Cl)cc1 (stereo not given)	x	-0.22
CCOC(=O)C1=C(C)NC2=C(C(=O)c3ccccc32)C1c1ccc(OCC(=O)O)c(Cl)c1 (stereo not given)	x	-0.23
O=C(O/N=C(\Cn1nnc(N2CCOCC2)n1)c1ccc(Cl)cc1)c1ccc(Cl)cc1Cl	-0.1	1
Cc1cc(C(=O)COc2cccc3cccnc23)c(C)n1C	1.6	x
Cc1[nH]c2ccccc2c1C(c1cccs1)N1CCN(c2ccccc2)CC1 (stereo not given)	-0.65	0.44
COc1ccc(Cl)cc1NC(=O)c1c(NCc2cccn2C)sc2c1CCCC2	-0.2	0.52
Cc1cc(-c2ccccc2)n2nc(N)nc2n1	1.2	x
Cc1ccc(C)c(N(C)S(=O)(=O)c2ccc3[nH]cc(C(=O)N4CCN(c5ccccc5)CC4)c(=O)c3c2)c1	x	0.68
Cc1ccc(C(=O)Nc2ccc3c(c2)OCCO3)cc1	-1.1	0.2
Cc1cc(C(=O)NCc2ccccc2)on1	-1.1	0.18
CN(C)/C=C1/C(=O)N(c2nc3ccccc3s2)N=C1c1ccccc1	x	-0.37
O=C1CC(Sc2ccccn2)C(=O)N1c1ccccc1 (stereo not given)	0.25	0.51
CCn1c2ccccc2c2cc(NC(=O)c3cc(C)on3)ccc21	-0.1	x
CN1O[C@@H]2C(=O)N(c3ccc(Cl)cc3Cl)C(=O)[C@@H]2[C@H]1c1ccccc1	x	-0.18
CCCCCc1ccc(/C=N/O)cc1	x	-0.22
Cc1ccc(C)c(NC2=NCCC2)c1	-0.5	0.55
COc1cc(C2C(C#N)=C(N)Oc3c2c(=O)oc2ccccc32)cc(OC)c1OC(=O)c1ccccc1 (stereo not given)	x	0.56
O=C(c1cc2sccc2n1Cc1ccc(F)cc1)N1CCc2ccccc2C1	-0.7	x
CCOC(=O)N1CCC(NCc2ccc(Br)cc2)CC1	0.95	-0.27
O=C(Cc1cccs1)NC1CCN(Cc2ccccc2)CC1	-1.1	x
Cc1c(Cl)cccc1NC1=NCC(=O)N1C1CCCC1	-0.1	x
C=CCn1c(COc2ccccc2)nnc1SCC(N)=O	-0.75	-0.12
COc1ccc2c(c1)CCc1sc(/N=C/c3ccc(C)cc3)nc1-2	1.1	-0.23
CC1=CC(=C2C(=O)N(c3ccccc3)N=C2C)C=C(C)N1Cc1ccco1	1.5	x

Arranged by molecular weight (descending): some entries from above
SMILES	AID504770	Ba CapD inh
CC(C)c1ccc(N(C)S(=O)(=O)c2ccc3[nH]cc(C(=O)NCCc4ccccc4)c(=O)c3c2)cc1	x	-0.29
O=C(c1cc2sccc2n1Cc1ccc(F)cc1)N1CCc2ccccc2C1	-0.7	x
CC1=CC(=C2C(=O)N(c3ccccc3)N=C2C)C=C(C)N1Cc1ccco1	1.5	x
Cc1cc(C(=O)COc2cccc3cccnc23)c(C)n1C	1.6	x
Cc1ccc(C(=O)Nc2ccc3c(c2)OCCO3)cc1	-1.1	0.2
CCCCCc1ccc(/C=N/O)cc1	x	-0.22
Cc1ccc(C)c(NC2=NCCC2)c1	-0.5	0.55

Additional results
SMILES	AID504770	Ba CapD inh
C=CCNC(=O)Cc1coc2cc(C)ccc12	-0.55	0.16
COCc1cc(Sc2ccc(Cl)cc2Cl)nc(-c2ccccc2)n1	x	-0.16
COCCN1C(=O)c2ccccc2C(C(=O)NC(C)C)C1c1c[nH]c2ccccc12 (stereo not given)	-0.7	0.005
COc1ccccc1C1CC(c2ccccc2)=NN1C(=O)c1ccccc1 (stereo not given)	x	-0.67
O=c1oc2c(Cl)cc(Cl)cc2cc1-c1nnc(Nc2ccccc2F)s1	x	0.19
Nc1ccccc1Sc1ncnc2scc(-c3ccccc3)c12	0.9	0.14
Cc1ccc(C(c2c(O)[nH]c(=S)[nH]c2=O)N2CC(C)CC(C)C2)cc1 (stereo not given)	-0.8	-0.32
Cc1c(C#N)c(NC(=O)CSc2nnnn2C2CCCC2)n(Cc2ccccc2)c1C	-0.5	x
Fc1ccc(-c2nc3cc(Cl)c(Cl)cc3nc2-c2ccc(F)cc2)cc1	x	-0.49
Cc1ccc(C)c(N2CCN(C(=O)c3ccc(/C=C4\Oc5ccccc5NC4=O)cc3)CC2)c1	3	-0.63
Cc1cc(C)c([N+](=O)[O-])cc1-c1ccc(/C=N/c2c(-c3ccco3)nc3ccccn23)o1	x	-0.09
CC1(C)/C(=C\CC(=O)O)C2CCC1C2 (stereo not given)	0.9	0.36
Cc1ccc2c(c1)c1nc3ccccc3nc1n2CCN1CCOCC1	-2.1	-0.02
COc1ccccc1C1N(c2ccc(C)cc2)CCN1c1ccc(C)cc1	x	-0.69
Cc1c(C(=O)O)cc(-c2ccccc2)n1CCSc1cc(C(F)(F)F)nc2ccccc12	-0.4	10
Cc1ccc(Nc2nc(Nc3ccc(C)cc3)nc(Sc3ncn[nH]3)n2)cc1	0.2	1.7
COc1ccc(C2Nc3ccc4ccccc4c3C3=C2C(=O)CC(c2ccccc2)C3)cc1OC (stereo not given)	x	60
COc1ccccc1CNC(=O)C1CCCN(C(=O)N2CCOc3ccccc32)C1 (stereo not given)	0.6	-0.06
Cc1cc(=O)cc(C)n1-c1ccccc1O	0.2	0.7
Cc1ccc2nc(NCc3ccccc3)c(C=Nc3ccc(Cl)cc3)c(=O)n2c1	-0.75	0.77
CCc1cc2c(cc1-c1csc(-c3ccc(OC)cc3)n1)C(C)(C)CCC2(C)C	x	0.18
N#CCNS(=O)(=O)c1cc(Cl)ccc1Cl	-0.75	-0.28
COC(=O)C1=C(NC(=O)C(C)(C)C)CCS1	-0.25	i
COCC(C)NC(=O)Nc1cn(C)c2ccccc12 (stereo not given)	0.3	x
CC1CC1C(=O)OCC(=O)Nc1cccc(Cl)c1 (stereo not given)	-0.55	-0.095
O=C(Nc1nccs1)c1ccoc1COc1ccccc1	-0.45	x
COC(=O)c1ccc2n[nH]nc2c1	x	-0.025
O=C(NCc1cccnc1)c1nc(-c2ccc(Cl)cc2)n2c1CCCCC2	-0.75	0.48
COc1ccc(C(=O)N[C@H](C(=O)Nc2nc3ccccc3[nH]2)C(C)C)cc1	-0.1	x
O=C(Nc1ccc(F)cc1F)c1nn2c(C(F)(F)F)cc(-c3ccco3)nc2c1Cl	x	0.64

Reprinted from the part before: 2 compounds; new compounds follow.
SMILES	AID504770	Ba CapD inh
COc1ccc(C(=O)N[C@H](C(=O)Nc2nc3ccccc3[nH]2)C(C)C)cc1	-0.1	x
O=C(Nc1ccc(F)cc1F)c1nn2c(C(F)(F)F)cc(-c3ccco3)nc2c1Cl	x	0.64
Cn1nnc2c(N3CCC(C#N)(c4ccccc4)CC3)nc(Cc3ccc(Cl)cc3Cl)nc21	-0.55	0.28
CCN=C(Nc1ccc2c(c1)OCO2)SC1CC(=O)N(c2ccc(C(=O)OC)cc2)C1=O (stereo not given)	0.6	0.08
Fc1cccc(NCc2cn3cccnc3n2)c1	-0.2	0.22
COc1ccc(C(=O)Nc2nc3c(OC)cccc3s2)cc1OC	-0.95	51
CCN(CC)c1ccc2cc(C(=O)NC(C)=O)c(=Nc3cccc(F)c3)oc2c1	x	0.22
COc1ccc(C)cc1NC(=O)c1c(C)cn(C)c1CC(=O)O	0.35	-0.64
COc1ccc(N2CCN(C(=O)c3cccc(N4C(=O)C5CC=CC(C)C5C4=O)c3)CC2)cc1 (stereo not given)	x	0.28
O=C(Cc1ccc(-n2c(=O)[nH]c3ccccc3c2=O)cc1)NC1CCCCC1	-0.85	-0.015
N#Cc1nc2c(-c3nc4ccccc4s3)c(N)n(Cc3ccccc3)c2nc1C#N	-0.7	x
Cc1cccc(C)c1OCC(=O)N1CCc2ccccc21	-0.7	0.35
COc1ccccc1NCC(O)Cn1ccc2ccccc21 (stereo not given)	-0.2	x
COc1c(F)c(F)c(C(=O)O)c(Nc2cccc(C)c2)c1F	1.5	-0.27
c1ccc(-c2ncc3c(n2)-c2ccccc2CC3)cc1	-0.5	0.05
COC(=O)CN1C(CN2CCOCC2)=Nc2ccc(Br)cc2C1c1ccccc1 (stereo not given)	1	-0.43
CCOC(=O)C1=CN(Cc2ccc(Cl)cc2)C=C(C(=O)OCC)C1c1cc(OC)c(O)c(OC)c1	x	0.39
CS(=O)(=O)N1Cc2ccccc2CC1C(=O)OCC(=O)c1ccccc1F (stereo not given)	-0.35	x
Nc1cccc(CCc2ccccn2)c1	-0.4	x
S=C1Cc2ccccc2N1	0.05	x
Cc1csc(C/C(N)=N/O)n1	-1.3	x
O=C(CC1(O)C(=O)N(Cc2ccccc2)c2ccccc21)c1ccc(Br)cc1 (stereo not given)	0.8	0.18
COc1ccccc1COC(=O)C1CCC1	1.5	-0.71
O=C(CSc1nc2[nH]ncc2c(=O)n1-c1ccc(Cl)cc1Cl)Nc1ccc2c(c1)OCCO2	x	-0.16
COc1ccccc1C1CCN(C(=S)Nc2ccc(Br)cc2)CC1	x	-0.29
CN1CCC(N(C(=O)c2ccc(C(F)(F)F)cc2)C2CCN(C)CC2)CC1	x	-0.8
O=C(CN1C(=O)/C(=C\c2ccc(F)cc2)N=C1c1ccccc1)c1ccco1	0.35	12
O=C(Nc1ccc(F)cc1F)Nc1cccn(Cc2ccc(Cl)cc2)c1=O	x	35
CC(=O)Nc1ccc(S(=O)(=O)NCCC(c2ccccc2)c2ccccc2)cc1	0.1	0.4
Cc1ccc2[nH]c(=O)c(CN(Cc3nnnn3CCc3ccccc3)C3CCCC3)cc2c1	-0.05	x
COc1ccc(C(=O)Oc2c(Cl)cc(/C=C3\SC(N)=NC3=O)cc2OC)cc1	x	0.35
CCN1C(=O)c2cccc3c(S(=O)(=O)N4CCCCC4)ccc1c23	x	0.43

Additional compounds follow:
Results follow in this order: AID504770 | Ba CapD inh
- Cc1ccc(N2C(=O)NC(c3ccccc3)(C(F)(F)F)C2=O)nc1 (stereo not given)
  -0.6 | -0.06
- Cc1oc(-c2ccccc2)nc1CC(=O)NC(Cc1c[nH]c2ccccc12)C(N)=O (stereo not given)
  x | 0.91
- C[C@]12CC[C@@H](O)CC1CCC1C2CC[C@](C)(C(=O)O)C1/C=C1/Nc2ccccc2C1=O (stereo not given in full)
  x | -0.045
- CN=C1S/C(=C\c2ccc(-c3cc(Cl)ccc3[N+](=O)[O-])o2)C(=O)N1C
  x | -0.25
- CC(NC(C)(C)C)C(=O)c1cccc(Cl)c1 (stereo not given)
  -0.15 | 1.3
- COc1ccc(/C=C2\C=C(c3ccccc3)N(c3ccc(Br)cc3C)C2=O)cc1
  x | -1.5
- COc1ccc2c(C)nc(NC3=NC(C)(C)CC(C)=N3)nc2c1
  -0.4 | 3.7
- COc1ccc(OC)c(S(=O)(=O)N2CCc3cc(OC)c(OC)cc3C2)c1
  0 | 0.93
- Nc1c(C(=O)c2ccccc2)sc2nc3c(cc12)CCC3
  0.05 | -0.34
- CCCNC(=O)c1ccc2c(c1)c(C)c(C)n2CC
  -0.2 | 0.41

The list continues:
Results follow in this order: AID504770 | Ba CapD inh
- CCCCNC(=O)CC1NCCNC1=O (stereo not given)
  0.05 | x
- Cc1ccc(S(=O)(=O)N(C)CC(=O)Nc2cccnc2)cc1
  0.2 | 0.73
- Fc1ccc(CNc2ccc(N3CCCC3)cc2)cc1
  -0.5 | x
- COc1cccc(CO)c1OCc1ccccc1F
  -0.3 | 0.4
- CCN=C1NN=C(c2cc(C)n(Cc3ccco3)c2C)CS1
  -0.3 | x
- CCOc1nc2ccccc2nc1NS(=O)(=O)c1ccccc1
  1.6 | x
- CCN(CC)C(=O)c1cc(-c2cc(C(=O)N(CC)CC)c3ccccc3n2)nc2ccccc12
  1.1 | -0.53
- c1ccc(N2CCN(CCc3nnc4n3CCCCC4)CC2)cc1
  -0.95 | -0.31
- O=C1CSC(=S)N1CCCCCCN1C(=O)CSC1=S
  0 | x
- CCOC(=O)CC(=O)NC1(Cc2ccc(O)cc2)CCCCC1
  -0.4 | 0.065

Remaining list, next part:
Results follow in this order: AID504770 | Ba CapD inh
- COc1ccc(OCC(=O)NN=C(c2ccccc2)c2ccccc2)cc1
  x | -0.065
- O=C1NC(c2ccccc2OCc2ccccc2)Nc2sc3c(c21)CCCC3 (stereo not given)
  x | 0.055
- CC(C)(CCl)Nc1nc2ccccc2s1
  0.3 | -0.51
- COc1ccccc1CCOC(=O)NNC(=O)/C=C/c1cccc(C(F)(F)F)c1
  x | 2.8
- CCn1nnc2c(N(Cc3ccccc3)Cc3ccccc3)ncnc21
  -0.5 | x
- O=C(COc1ccccc1Br)N1CCCCCC1
  -0.75 | -0.17
- O=C(COc1ccccc1)NCc1nc2ccccc2n1Cc1ccc(Cl)cc1
  0.5 | 0.045
- N#Cc1ccc(COC(=O)CCc2nnc(-c3ccccc3)o2)cc1
  -0.2 | x
- CCCCNc1nc(SCC(=O)n2nc(N)cc2C)nc2ccccc12
  x | 0.3
- c1ccc(-n2ncc3c(NCc4cccs4)ncnc32)cc1
  2 | -0.29
- O=C(COc1ncnc2sc3c(c12)CCCC3)NC1CCS(=O)(=O)C1 (stereo not given)
  -0.75 | x

High-throughput results deposited in PubChem BioAssay by ICCB-Longwood Screening Facility, Harvard Medical School.
